Menin-MLL FL inh – displaces fluorescein MLL peptide from human menin; Fluorescence polarization, fluorescein-MLL peptide displacement from menin; FP activity change, % at 61.4 µM; 290,000 tested, under 10 active; inconclusive = falling polarisation curve, or a change in total fluorescence; inactive = total fluorescence flat and polarisation flat or rising; no compound was filed as active; the % refers to the polarisation; negative = inhibition;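 note: % of control where 0% means no effect; inhibitors lower the polarisation; unlabelled MLL peptide was the positive control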
ClpP mod – qHTS Assay for Activators of ClpP. purified B. subtilis ClpP, FRET peptide cleavage, 20 min. ATP-dependent Clp protease proteolytic subunit (Bacillus subtilis (strain 168)), P80244. 340,000 compounds, 1.9% hits. Potency, µM (doses to about 57.5 µM), without a hit: top-dose activity change, negative = active; active = well fitted falling curve with a large enough effect; inconclusive = small, poorly fitted or top-dose-only effect; inactive = no such curve, though single readings can be large or run the other way; note: potency is the fitted concentration of half-maximal effect; the source files actives as falling curves though it sought activators and does not explain the sign; nearly all actives have a fitted effect of over 65% in size; many hits overshoot -100%
Target sequence (P80244 whole entry, looked up): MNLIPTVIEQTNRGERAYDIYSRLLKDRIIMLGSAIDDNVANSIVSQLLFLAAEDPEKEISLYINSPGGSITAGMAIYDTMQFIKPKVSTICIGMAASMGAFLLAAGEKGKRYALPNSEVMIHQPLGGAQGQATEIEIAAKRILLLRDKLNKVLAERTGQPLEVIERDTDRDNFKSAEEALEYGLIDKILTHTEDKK
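Purified B. subtilis ClpP, 10 microg/mL final in Tris/HCl pH8 with KCl, BSA, glycerol and Tween-20, cleaved an Abz/nitrotyrosine-quenched decapeptide. Fluorescence (ex 320, em 430) was read at 0 and 20 min at room temperature. Delta was normalized to 5.8 microM ADEP and DMSO/no-enzyme controls.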
TRPML1 agonist – activates the human TRPML1 channel; Q9GZU1; TRPML1-expressing cells, Ca2+ dye fluorescence, FDSS; host cell line not named in the record; reference of the full effect not given here; activation, % (no concentration beside the values); 410,000 compounds, 0.12% hits; in the data active = activation above about 50%; inconclusive = about 30% to 50%; inactive = below about 30%; note: 0% is about no effect; the text of the record puts the active cut at 80%
Target sequence (Q9GZU1 whole entry, looked up): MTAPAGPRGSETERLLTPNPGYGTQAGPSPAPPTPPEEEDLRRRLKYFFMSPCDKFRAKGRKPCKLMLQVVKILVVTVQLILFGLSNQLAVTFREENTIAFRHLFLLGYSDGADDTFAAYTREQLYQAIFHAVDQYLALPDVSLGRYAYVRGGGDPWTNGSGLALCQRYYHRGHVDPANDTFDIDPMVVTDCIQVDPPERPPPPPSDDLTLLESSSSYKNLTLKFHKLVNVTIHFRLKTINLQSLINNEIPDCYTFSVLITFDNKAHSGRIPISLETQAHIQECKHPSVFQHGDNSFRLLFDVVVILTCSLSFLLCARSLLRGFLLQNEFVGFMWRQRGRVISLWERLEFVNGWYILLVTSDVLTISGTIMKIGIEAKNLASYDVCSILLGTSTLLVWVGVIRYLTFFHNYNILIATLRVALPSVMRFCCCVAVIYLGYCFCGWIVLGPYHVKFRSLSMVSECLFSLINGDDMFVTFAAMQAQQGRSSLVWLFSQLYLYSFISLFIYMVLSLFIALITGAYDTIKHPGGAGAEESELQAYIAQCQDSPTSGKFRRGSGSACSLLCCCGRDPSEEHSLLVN
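Cells: TRPML1-DL, 1X Tet inducer, ~16 h at 37 degrees C/5% CO2. Dye: ABD Ca8 no-wash + quencher, 45-90 min RT. Read: 10 s baseline, compound add, 110 s agonist phase; 54-4 EC80 (4uM final), 110 s antagonist phase.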
Sfp inh – Sfp phosphopantetheinyl transferase inhibition | Q9F4F7 | Biochemical Sfp PPTase activity, qHTS | Potency, µM, for inactives: max response, negative = inhibition, usual class: inhibitors | 310,000 compounds, 3.5% hits | AID 1490; active = well fitted inhibition curve with a large enough effect; inconclusive = small, poorly fitted or top-dose-only effect, or another doubt; inactive = no such curve, though single readings can be large or run the other way;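 note: the enzyme is Sfp with the accession as filed and its product quenches rhodamine fluorescence; potency is the fitted concentration of half-maximal effect; 0% = enzyme reaction without inhibitor and -100% = no enzyme wells; top concentration of the series not given in the record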
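Reaction rates are the 30-min fluorescence difference (ex 525, em 598 nm) in wells containing 15 nM Sfp, 5 uM rhodamine-CoA and 12.5 uM BHQ-2-YbbR at pH 7.6 with 10 mM MgCl2.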
PINK1 modulator – changes PINK1 expression; PINK1 immunofluorescence, high-content cytometry, 24 h; Potency, µM (titrated, usually from 76.6 µM), for inactives: top-dose activation (PINK1 increase), usual class: activators; 410,000 compounds, 0.2% hits; AID 624263; active = well fitted activation curve with a large enough effect; inconclusive = small, poorly fitted or top-dose-only effect; inactive = flat fitted curve, though single readings scatter; cell line not stated here;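 note: potency is the fitted concentration of half-maximal effect; % of control where 0% means no effect; nearly all actives have a fitted effect of over 65% in size; a mitochondrial uncoupler was the plate control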
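Stable cell line, 250 cells/well, 12 h attachment; compounds pinned at 5 concentrations, 24 h; CCCP control. Fixed with nuclear dye, primary antibodies 12 h at 10 degrees C, secondary plus cell stain; laser-scanning cytometer read.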
TRPML1 blocker – human mucolipin-1 channel inhibition | Q9GZU1 | TRPML1-inducible cells, Ca2+ dye fluorescence, FDSS; stronger effect = lower value; inhibition of EC80 agonist-evoked calcium signal | activity change, negative = inhibition, % (concentration not given with the values) | 390,000 compounds, 0.02% hits | AID 624415; in the data active means activity change below about -50%; inconclusive means about -30% to -50%; inactive means above about -30%;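 note: stimulus is agonist 54-4 at its EC80 concentration; % is set by controls: 0 for no effect and ±100 for the full control effect; the text of the record puts the active cut at -80%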
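TRPML1-DL cells, Tet-induced overnight (~16 h, 37 °C) at 1,500 cells/well, were loaded with Ca8 no-wash dye plus quencher for 45-90 min at room temperature. Compounds were pinned during FDSS kinetic reading; agonist 54-4 at EC80 (4 uM final) then added.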
TRPV1 PAM – potentiators of human vanilloid receptor 1 (TRPV1); TRPV1-expressing cells, Fluo-8 calcium influx, capsaicin EC20 potentiation; host cell line not named in the record; control for the full effect not named in the record; Q8NER1; 320,000 compounds, 0.02% hits; AID 540277; potentiation, % at 8.33 µM; active means potentiation above 80%; inconclusive means 30% to 80%; inactive means below 30%; note: 0% is about no effect
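Fluo-8 calcium influx in TRPV1-expressing cells, kinetic read (ex 480/em 520 nm). Compound added and read 3 min for agonist activity, followed by capsaicin at EC20 final and 2 min further read for enhancement.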
* hit, by the source's call; ? = inconclusive; . = no result given; & = joins results of further samples; [ ] = another dose, or the depositor's remark.

SMILES	Menin-MLL FL inh	ClpP mod	TRPML1 agonist	Sfp inh	PINK1 modulator	TRPML1 blocker	TRPV1 PAM
Cc1cccc(C)c1NC(=O)CN(C)C(=O)c1ccccc1C(=O)N(C)Cc1ccccc1	2.6	.	-0.4	12%	4.2%	5	-8
COc1ccc(N(CC(=O)N/N=C/c2cc(OC)ccc2OC)S(=O)(=O)c2ccccc2)cc1	0.9	4.1%	4.3	11%	1.6%	32	-6
Cc1c(N2C(=O)c3ccccc3C2(O)c2ccccc2)c(=O)n(-c2ccccc2)n1C (configuration not stated)	0.0	-1.1%	1.1	2%	-0.8%	25	10
COc1ccccc1-c1nccc(-n2ccnc2)n1	0.7	.	.	-15%	-1.4%	.	.
CC1(C)CC(=O)C(C=NCCN2CCN(C(=O)CCl)CC2)=C(O)C1	-0.4	-4.0%	0.0	15%	2.9%	-13	-4
CC(C)OC(=O)c1ccc(Cn2nnc3ccccc3c2=O)cc1	5.3	-1.3%	0.3	-11%	15%[38.3 µM]	1	4
COc1ccc(Oc2ccc(/C=C/C(=O)c3cccc(OC)c3)cc2[N+](=O)[O-])cc1	6.4	0.7%	0.1	3%	-1.3%	2	-1
COc1cccc(CC(=O)OCC(=O)NC(=O)c2ccc(OC(F)F)cc2)c1	.	4.3%	-0.5	.	-0.5%	7	1
Cc1ccc(NC(=O)N(C)c2ccccc2)cc1	-0.2	0.5%	0.8	1%	-0.4%	28	-16
CC(=O)c1ccc(OCCNS(=O)(=O)c2ccc(-n3cnnn3)c(C)c2)cc1	-3.8	-2.1%	-0.4	6%	-0.3%	-3	20
Cc1cc(C)c(OCC(=O)Nc2ccccn2)c([N+](=O)[O-])c1	4.3	-0.5%	0.0	-3%	-1.3%	32	-4
CCOC(=O)c1c(NC(N)=O)nc2n1CCC2	-2.2	-3.5%	0.6	9%	0.9%	1	3
Cc1c(C(=O)NCc2cccc(C(F)(F)F)c2)sc(=O)n1Cc1ccc(F)cc1	.	2.3%	-0.5	.	0.4%	.	.
COc1ccc(S(=O)(=O)N(CC(=O)NN=C2CCN(C)CC2)c2ccc(C)cc2)cc1OC	.	-1.3%	0.3	5%	-1.4%	-6	-5
Cc1[nH]c2ccccc2c1C1(O)C(=O)Nc2ccc(Cl)cc21 (configuration not stated)	.	1.3%	0.0	.	3.3%	-16	.
Cc1cccc(NC(=O)c2ccc(NCC3CCCO3)c([N+](=O)[O-])c2)n1 (configuration not stated)	-1.8	-17%	-0.3	14%	4.8%	3	-9
Nc1ccc2nc(-c3ccc(N)c(Cl)c3)[nH]c2c1	-1.1	3.5µM*	-0.9	?	-1.5%	-11	-2
CC(NC(=O)CSc1nnc(-c2cccnc2)n1N)c1ccccc1 (configuration not stated)	5.5	1.1%	0.3	-2%	3.0%	5	-7
CC(/C=N/NC(=O)c1nnn(-c2nonc2N)c1C(C)C)=C\c1ccco1	6.4	12%	-1.4	-14%	2.3%	2	-12
CC1=CC(=Nc2c(C)n(C)n(-c3ccccc3)c2=O)C=C(C)C1=O	-0.4	0.8%	-0.5	79µM*	1.7%	5	14
CC(/C=N/N1CCN(c2ccccc2)CC1)=C\c1ccccc1	0.5	1.3%	-0.1	4%	12%[38.3 µM]	9	3
FC(F)(F)c1cc(CCN2CCNC[C@H]2Cc2cccc3ccccc23)cc(C(F)(F)F)c1	.	1.2%	0.3	.	-1.0%	1	-8
CCOC(=O)C1(C)CCCN(C(=O)c2cc(C)on2)C1 (configuration not stated)	.	-1.3%	-0.3	.	0.8%	.	.
Cc1ccc(CNC(=O)c2ccc(CN3CCOCC3)cc2)cc1	1.5	-0.6%	0.6	-3%	-0.3%	30	-21
Cc1nn(CCCC(=O)Nc2cc(Oc3ccccc3)cc([N+](=O)[O-])c2)c(C)c1[N+](=O)[O-]	5.0	25µM*	0.9	11%	6.1%	-10	-1
CCC1CCC(NC2CCCCNC2=O)CC1 (configuration not stated)	6.1	1.0%	1.7	16%	-2.3%[38.3 µM]	-2	-2
COc1cc(/C=N/Nc2ccc3ccccc3c2)ccc1OC(=O)c1ccco1	6.4	0.1%	-0.5	-11%	2.4%	-1	-4
CC[C@H]1c2[nH]c3ccccc3c2C[C@@H]2C(=O)N(c3ccc(F)cc3)C(=O)N21	.	1.5%	0.1	.	3.5%	-4	-5
Cc1ccc(N2NC(C)(c3cccs3)NC2=S)cc1 (configuration not stated)	3.5	-0.7%	-0.6	71µM*	8.9%	6	-2
CCN(CC(=O)Nc1ccccc1C(F)(F)F)C(=O)CN1C(=O)NC2(CCCC2)C1=O	.	.	0.6	.	1.1%	16	3
CCCCCc1c(O)c2ccccc2[nH]c1=O	-2.3	25µM*	-0.7	-4%	1.5%	8	21
CCCn1c(SCC(=O)NCCc2ccc(Cl)cc2Cl)n[nH]c1=O	-1.6	0.7%	0.1	7%	4.4%[38.3 µM]	-10	-13
Cc1ccc(O)c(C(=O)/C=C/c2ccc3c(c2)OCCCO3)c1	4.3	.	1.3	-14%	-1.4%	-8	7
CN(C)S(=O)(=O)c1ccc(Cl)c(NC(=O)CN2C(=O)NC3(CCCC3)C2=O)c1	-1.1	.	0.5	26%	9.7%	-5	-5
COc1ccc(CCN2CC34C=CC(O3)C(C(=O)NCc3ccccc3)C4C2=O)cc1OC (configuration not stated)	-0.1	2.3%	-0.2	0%	3.3%	-10	23
COc1cc2nc(N3CCCCC3)nc(NC3CCN(Cc4ccccc4)CC3)c2cc1OC	.	4.0%	0.0	.	-0.7%	.	.
Cc1ccc(C2=NCN(c3ccc(C(=O)O)cc3)C(=S)N2)cc1	-1.4	.	.	-11%	.	.	2
CCCCc1ccc(NC(=O)Cn2nnc3sc4c(c3c2=O)CCC(C)C4)cc1 (configuration not stated)	.	-15%	-0.7	.	0.6%	-4	.
COCCCNC(=O)CSc1nc2cc3c(cc2c(=O)n1CCCCCC(=O)NCc1ccc2c(c1)OCO2)OCO3	.	0.7%	1.8	.	0.0%	-16	.
Cc1ccc2nc(NC(=O)CSc3nc(=O)n(CCN(C)C)c4c3CCCC4)sc2c1	.	1.3%	-0.1	.	-3.3%	-1	1
CC(C)Oc1ccc(C(=O)NNC(=O)c2ccccc2C(=O)O)cc1	0.0	0.4%	1.6	-10%	2.6%	24	6
Cc1ccc([N+](=O)[O-])cc1S(=O)(=O)Nc1cccc(S(=O)(=O)Nc2ccccc2C(=O)O)c1	.	-1.0%	0.0	.	0.0%	0	.
CCN(Cc1ccccc1)c1cc2c(c3c1ccn3C)C1CCC2O1 (configuration not stated)	.	-28%	-0.5	.	1.7%	.	.
CCOc1cccc2sc(=NC(=O)CCS(=O)(=O)c3ccc(F)cc3)n(C)c12	.	?	2.0	.	1.4%	-3	-20
CCCCCCCCN1C(=O)[C@H](CC(=O)NCc2ccc(OC)c(OC)c2)C[C@@]2(C(=O)OCC)CCCC=C12	.	5.8%	0.7	.	-1.1%	.	.
CCNc1ncc2nc(-c3cccc(C#N)c3)c(=O)n(CCC#N)c2n1	?	.	.	4%	-0.2%	.	.
Cc1ccc(CNC(=O)c2ccc(CS(=O)Cc3cccc(Cl)c3)o2)cc1 (configuration not stated)	-1.0	-3.3%&-2.1%	-0.7&-0.8	-12%	0.6%&-0.9%	1&-7	1
Cc1ccc(NC(=O)CC(NC(=O)c2ccccc2Cl)c2ccccc2)nc1 (configuration not stated)	.	1.1%	2.4	.	6.2%	9	-5
Cc1ccc(OCn2c(=O)sc3ccccc32)cc1	2.0	-0.5%	3.5	-16%	-0.1%[38.3 µM]	2	-9
O=C(CN1C(=O)CCc2cc(S(=O)(=O)N3CCOCC3)ccc21)Nc1cccc(C(F)(F)F)c1	.	0.2%	1.5	.	-0.7%	0	.
COc1ccc(NC(=O)NC2CCCCCCC2)cc1OC	0.3	-2.2%	0.4	0%	0.2%	5	4
N#CCCn1c(=O)cnc2cnc(OCc3ccccc3)nc21	3.8	.	.	-10%	-1.0%	.	.
COc1ccc(OCc2cc(C(=O)N3CCN(CC4CC4)CC3)no2)c(Cl)c1	-3.8	-3.7%	0.3	0%	-2.1%	21	-9
CCSC1=N/C(=C\c2ccc(-c3ccccc3[N+](=O)[O-])o2)C(=O)S1	11	1.3%	-0.7	?	-0.6%	1	-5
Cc1c(NC(=O)OC(C)C)sc(=S)n1C	1.3	0.4%	2.7	6%	2.2%[38.3 µM]	-5	19
COCCC(=O)N1CCC(Oc2ccc(C(=O)NCCC3=CCCCC3)cc2)CC1	.	2.0%	-1.2	18%	0.7%	4	-4
O=c1[nH]n(-c2ccccc2Cl)c(=O)c2ccccc12	-1.0	.	-1.1	3%	0.1%	-5	-18
O=C(NNC(=O)c1c(O)c2ccccc2[nH]c1=O)c1ccccc1	-3.8	-4.7%	1.0	5%	22%	6	14
COc1ccc(CNC(=O)Cn2nnc(-c3ccc(C(F)(F)F)cc3)n2)cc1	.	0.4%	-0.7	.	-0.3%	10	.
CC(C)N(C(=O)Cn1c(-c2ccccc2Cl)nc2ccccc21)c1ccccc1	1.5	-1.0%	0.0	15%	-2.7%	-17	-20

Sfp inh: entries above that show a hit.
SMILES	Menin-MLL FL inh	Sfp inh	PINK1 modulator	TRPML1 blocker
CC1=CC(=Nc2c(C)n(C)n(-c3ccccc3)c2=O)C=C(C)C1=O	-0.4	79µM*	1.7%	5
Cc1ccc(N2NC(C)(c3cccs3)NC2=S)cc1 (configuration not stated)	3.5	71µM*	8.9%	6

Additional structures.
SMILES	Menin-MLL FL inh	ClpP mod	TRPML1 agonist	Sfp inh	PINK1 modulator	TRPML1 blocker	TRPV1 PAM
COc1ccc(C(=O)N2CCN(c3ccccc3)CC2)cc1S(=O)(=O)N1CCOCC1	0.0	-1.6%	-0.4	9%	0.9%	6	-2
CC1CN(C(=O)c2cc3c(=O)n4ccccc4nc3n2C)CC(C)O1 (configuration not stated)	.	.	0.0	11%	3.4%	-3	?
CC(Oc1ccc(Cl)cc1)C(=O)N(C)CC(=O)Nc1ccc(N2CCOCC2)cc1 (configuration not stated)	.	2.2%	-0.1	4%	-2.0%	15	2
CC(=O)Cn1ncc(N2CCCCC2)c(Cl)c1=O	0.6	-6.3%	-0.2	14%	0.9%	5	0

Assay outcomes as filed in PubChem.

Not a hit list (roughly 4.4% active in at least one column).
